PABP polyA inh: PABP-poly(A) binding inhibition; P11940; PABP-poly(A) RNA binding, fluorescence polarization; inhibition, % at 35 µM; actives 1% (n = 290,000);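 active = 50% or more with normal probe brightness, or confirmed in later tests; inconclusive = above 50% with abnormal brightness, or retests that disagree; inactive = below 50% or failed in later tests; about a fifth of its hits are not listed in these tables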;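 note: calls also rest on retests at 20 µM and on dose response follow-up; controls were probe without protein and protein plus probe with vehicle; some compounds called inactive have numbers as strong as hits; many hits fall short of the cut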
Target sequence (P11940 whole entry, looked up): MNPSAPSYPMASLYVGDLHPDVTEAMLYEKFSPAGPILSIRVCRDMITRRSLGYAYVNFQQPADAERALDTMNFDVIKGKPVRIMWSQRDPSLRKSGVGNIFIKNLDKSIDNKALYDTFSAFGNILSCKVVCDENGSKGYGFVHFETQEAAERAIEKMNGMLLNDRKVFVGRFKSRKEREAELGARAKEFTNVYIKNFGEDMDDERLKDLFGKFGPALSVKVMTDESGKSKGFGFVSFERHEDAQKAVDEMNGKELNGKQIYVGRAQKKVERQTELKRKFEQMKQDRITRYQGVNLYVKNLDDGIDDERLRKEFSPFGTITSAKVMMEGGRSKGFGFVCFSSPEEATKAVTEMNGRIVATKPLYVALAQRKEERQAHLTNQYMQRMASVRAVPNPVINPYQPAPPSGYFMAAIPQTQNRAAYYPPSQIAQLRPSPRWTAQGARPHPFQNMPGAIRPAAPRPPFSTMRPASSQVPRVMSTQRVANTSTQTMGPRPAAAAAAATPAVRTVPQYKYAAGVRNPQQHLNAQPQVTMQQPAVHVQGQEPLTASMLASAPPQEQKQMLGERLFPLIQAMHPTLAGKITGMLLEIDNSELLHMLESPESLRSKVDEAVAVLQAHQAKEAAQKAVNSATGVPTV
MT1-MMP act inh: inhibitors of human MT1-MMP activation | actives 0.061% (n = 360,000) | GFP/RFP ratio change, % at 20 µM | HT1080 RFP-PRO-GFP cells, GFP/RFP ratio fluorescence, overnight; percent of plate control window, DMSO zero | P50281;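 active = GFP/RFP ratio change of at least 30% with cell ATP level not reduced by more than half and red fluorescence within 50% of control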; note: strong numbers were not always called active
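system = RFP-PRO-GFP reporter HT1080 cells | dosing = 20 µM single dose, 1% DMSO | timing = overnight cell settling, then overnight compound exposure, 37 °C, 5% CO2 | read-out basis = GFP/RFP fluorescence ratio | controls = DMSO and RFP-L50D-GFP cell wells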
CSC inhib: cancer stem cell inhibition; cancer stem cell-like cells viability, luminescence; inhibition, % at 7.5 µM; actives 1.1% (n = 300,000);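 active = mean at 75% or more and at least half the replicates too; inconclusive = mean and replicates disagree; tested in HMLE shEcad cells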;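 note: 0% = median of negative and 100% = median of positive control wells; the first replicate is given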
Yeast UUG start: alters start codon recognition fidelity in yeast; actives 0.13% (n = 350,000); AID 602363; activity score, % at 18.7 µM; S. cerevisiae UUG-firefly luciferase reporter, luminescence/redox ratio;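 active = replicate mean at a twofold rise or more, about +100% in these data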;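 note: firefly luciferase made from a UUG start codon reports start codon fidelity; reporter light over untreated wells divided by growth signal over untreated wells; some hits fall short of that in this replicate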
Rce1 inhib: inhibitors of yeast Ras-converting enzyme | actives 0.27% (n = 290,000) | yeast membranes, quenched prenylated peptide cleavage fluorescence | calls only;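 active = fall in fluorescence gain of 50% or more versus controls, with final raw signal at or below 3038400; inconclusive = same 50% fall but final raw signal above 3038400; inactive = fall in fluorescence gain under 50%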;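 note: plate controls were neutral control wells for no effect and wells lacking membranes for full effect; tested at 10 µM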
HIV Env fusion: HIV envelope-mediated fusion inhibition. inhibition, % at 12.3 µM. AID 651610. HeLa-JRFL Env/CEM21 cell fusion, luciferase. actives 1.1% (n = 360,000);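 active = mean replicate inhibition score of at least 50 and every replicate individually at or above 50; inconclusive = only one of the two criteria met; inactive = mean below 50 and not all replicates reaching 50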;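 note: 0% = plate neutral controls and 100% = maraviroc near 300 nM; one replicate is shown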
eIF4H FP inh: inhibitors of RNA binding by human eIF4H. inhibition, % at 35 µM. eIF4H fluorescence polarization binding assay. AID 2012. actives 0.94% (n = 290,000);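 active = 50% or more with normal probe brightness, or confirmed in later tests; inconclusive = above 50% with abnormal brightness, or retests that disagree; inactive = below 50% or failed in later tests; about a fifth of its hits are not listed in these tables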;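 note: calls also rest on retests at 20 µM and on dose response follow-up; 0% = protein and probe with vehicle and 100% = probe without protein; strong numbers were not always called active; many hits fall short of the cut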
eIF4H FP inh retest: second read-out of eIF4H FP inh, no call of its own (marks repeat the call); inhibition, %; compound at 20 µM; confirmation average;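 mean of two retest wells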
PABP polyA inh retest: further read-out of PABP polyA inh, marked with its call; inhibition, %; compound at 20 µM; confirmation repeats;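 mean of two retest wells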
MT1-MMP act inh RFP: recorded beside MT1-MMP act inh, whose call it bears; RFP signal change, %; measured here: RFP expression control read;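 0 = vehicle wells; hits needed this value within 50% of zero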
* marks the source's active call; other numbers are inactive results; i = inactive; ? = inconclusive; nt = no result given. Some of the compounds tested; count on the stated rates, not on these rows.

SMILES	PABP polyA inh	MT1-MMP act inh	MT1-MMP act inh RFP	CSC inhib	Yeast UUG start	Rce1 inhib	HIV Env fusion	eIF4H FP inh	others
c1ccc(-c2nnc(CN3CCN(c4ccccc4)CC3)o2)cc1	?	0	3	-11	-15	i	-28	-5
O=S(=O)(c1cc(F)ccc1F)N1CCN(c2ccccn2)CC1	-7	-1	-1	-11	-3	i	33	-8
CN1CC2([N+](=O)[O-])CC=C(OCCO)C([N+](=O)[O-])(C1)C2 (stereo unspecified)	-8	0	4	-15	nt	i	-1	5
Cc1ccc(C)c(Nc2cc(C(=O)NCc3cccnc3)c3ccccc3n2)c1	7	-11	-8	6	-14	i	-8	-5
COc1ccc2c(c1)[C@@H]1[C@H](CO2)[C@H](c2ccccc2)[C@]2(C)C(=O)Nc3ccc(C)cc3C(=O)N12	nt	-3	-4	6	-18	nt	nt	nt
Cn1c(SCC(=O)NNC(=O)c2ccc(Cl)cc2)nnc1-c1cccnc1	44	0	2	-9	nt	i	18	9
CCCN(CCC)Cc1cc(=O)oc2cc(C)ccc12	nt	2	4	nt	-11	nt	7	nt
O=C(CCN1C(=O)c2ccccc2C1=O)N1CCOCC1	7	-7	6	5	-15	nt	-28	-5
Cc1cccc(NC(=O)c2cc(S(=O)(=O)N3CCc4ccccc43)cn2C)c1C	8	8	0	17	-21	i	27	6
Cc1cc(C(=O)N2CCN(C(c3ccccc3)c3ccccc3)CC2)on1	-5	-6	-4	2	8	i	3	4
CCOC(=O)COn1c(=O)c(=O)n(OC)c2ccccc21	-8	5	-1	-2	-8	i	-5	-1
CCCn1nc(C(=O)N2CCN(c3ccccn3)CC2)c2ccccc2c1=O	nt	2	4	4	-4	nt	-4	nt
CCOc1ccc(OCC)c(NC(=O)CSc2nnc(Cn3cnc4ccccc43)n2C)c1	9	7	-2	-3	-13	nt	-17	-8
O=C(NCc1ccc2c(c1)OCO2)C1CC(=O)N(c2ccc(Cl)cc2)C1 (stereo unspecified)	5	1	2	nt	-11	i	3	-5
Cc1cc(-c2nn(-c3ccccc3F)cc2CN2CCCC(O)C2)c(C)s1 (stereo unspecified)	2	2	-1	-9	-6	i	11	-5
O=C(C1CCC(Cn2c(=S)[nH]c3ccccc3c2=O)CC1)N1CCOCC1 (stereo unspecified)	1	6	1	1	-23	i	-1	6
COc1cc(C(C#N)N2CCC(c3ccccc3)=N2)ccc1O (stereo unspecified)	-7	2	-2	0	-9	i	4	3
CSCCC(NC(=O)c1ccc([N+](=O)[O-])cc1Cl)C(=O)OCC(=O)NC1CCCC(C)C1C (stereo unspecified)	-8	0	2	-11	nt	i	1	14
O=C(NCc1ccco1)c1ccccc1-c1nc(-c2ccccc2)no1	-2	-8	-2	-6	-19	i	nt	4
Cn1c(=O)c2c(nc(N/N=C/c3cccs3)n2Cc2ccccc2)n(C)c1=O	6	-1	-14	-18	nt	i	-2	-4
CCC(C)c1ccccc1NC(=S)Nc1cccnc1 (stereo unspecified)	-10	1	2	-14	-28	i	-44	-3
N#Cc1nc(COc2ccc(Cl)cc2)oc1N1CCCCCC1	0	2	-3	-10	-24	nt	38	-11
Cn1c(N)c(S(=O)(=O)N2CCN(c3ccccc3F)CC2)c(=O)n(C)c1=O	13	-3	-2	-16	-2	i	-8	-3
CCCCN(C)C(=O)c1ccc(Nc2nc(C(N)Cc3ccccc3)cs2)nc1 (stereo unspecified)	nt	0	-1	nt	-13	nt	-2	nt
Cc1cc(/C=C(\C#N)C(=O)Nc2ccccc2)c(C)n1-c1cccnc1	87	0	-7	-3	nt	i	-53	6	eIF4H FP inh retest=6;PABP polyA inh retest=-2
Cc1cc(C(=O)CCC(=O)NNC(=O)c2ccccc2O)c(C)s1	nt	3	1	2	-13	i	11	nt
COc1ccc(S(=O)(=O)N2CCc3ccccc32)cc1C(=O)Nc1cccnc1	-10	-1	-3	-5	-11	i	9	-5
CSc1ccccc1OCc1cc(C(=O)N2CCC(Oc3cccnc3)CC2)no1	11	0	-21	20	7	i	3	-2
COc1ccccc1C(=O)NC(CCSC)C(=O)NCc1ccccn1 (stereo unspecified)	nt	1	0	-12	-17	i	37	nt
CCC(Oc1ccccc1)C(=O)Nc1ccc(-c2nnc(-c3ccco3)o2)cc1 (stereo unspecified)	-2	-4	-4	nt	1	i	-77	-8
CC(C)(CO)N1CCN(C(=S)Nc2ccccc2)CC1	8	4	5	-9	nt	i	1	5
CCC(=O)NC1OC(CO)C(O)C(O)C1O (stereo unspecified)	-13	1	0	1	nt	i	-2	-5
CC1(C)Cc2nc3sc4c(=O)n(CC(N)=O)cnc4c3cc2CO1	4	-1	2	-6	1	i	nt	7
O=C(Nc1ccc2snnc2c1)N1CCOCC1	0	2	4	-7	-14	i	nt	7
COc1cc(C2C(C#N)=C(N)Oc3c2ccc2ccccc32)ccc1OCC(=O)Nc1ccccc1C (stereo unspecified)	-4	-10	-2	40	-5	i	21	1
CN1CCN(c2nc3c(c(=O)[nH]c(=O)n3C)n2CCCSc2nnnn2-c2ccccc2)CC1	-14	-3	-3	-10	nt	i	3	3
O=C(Nc1cccc(S(=O)(=O)N2CCCC2)c1)c1ccc2c(=O)n3c(nc2c1)CCCCC3	-4	-10	-28	0	nt	i	40	-1
Cc1ccc(C2=Nc3ccc(Br)cc3C(c3ccncc3)=NN2)cc1	-14	-3	-3	-3	nt	i	12	-14
O=C(Nc1ccc(C(=O)N2CCCC(CO)C2)cc1)c1ccc(Br)o1 (stereo unspecified)	nt	-1	4	nt	-2	nt	-34	nt
CS(=O)(=O)NCc1csc(-c2ccccc2)n1	-3	1	1	-10	-18	i	nt	-16
CCn1nc(NS(=O)(=O)c2ccc(NC(C)=O)cc2)c2cc3ccccc3nc21	15	0	5	-1	-20	i	6	-15
COc1ccc(Nc2nc(-c3sc(C)nc3C)cs2)cc1	12	4	-16	64	-11	i	?	-11
COc1cccc(NC(=O)CNC(=O)Cn2cnc3sc(C)c(C)c3c2=O)c1	17	-1	-3	2	-15	i	-5	-4
O=C(CNc1cccc(S(=O)(=O)N2CCCC2)c1)Nc1ccc(F)cc1F	nt	4	-2	-9	-9	i	12	nt
COc1ccc(-c2coc3c(C(=O)NCc4ccc(F)c(F)c4)cccc23)c(C)c1	nt	1	-26	nt	12	nt	29	nt
O=C(NN=Cc1ccc(O)cc1)C(=O)NN=Cc1ccc(O)cc1	nt	1	4	nt	-17	nt	-26	nt
CC(=O)N1CCc2cc(Br)cc(S(=O)(=O)CCC(=O)N3CCN(c4ccccn4)CC3)c21	-5	-5	-5	-1	3	i	-7	-4
COc1ccc(S(=O)(=O)N2CCCCCC2)cc1C(=O)N(C)Cc1cccc(OC)c1OC	nt	2	-7	-1	8	i	-6	nt
CN(C)C=Nc1ncc2c3ccccc3n(CCN(C)C)c2c1C#N	-13	-14	-12	7	-19	i	nt	-8
CCc1cc2ccc(OC)cc2nc1SCC(=O)NNC(C)=O	4	-1	-1	-6	-5	i	5	-10
CCOC(=O)c1nc(-c2ccccc2)oc1N1CCOCC1	4	-1	7	-3	nt	?	6	-10
CCOC(=O)c1c(C)[nH]c(C)c1S(=O)(=O)N(C)CC(=O)Nc1ccccc1F	-2	-10	-2	0	-11	i	0	-2
COC(=O)c1ccc(NC(=O)CSC2=NCCN2)cc1	92	3	3	3	3	i	-29	19	eIF4H FP inh retest=3;PABP polyA inh retest=-6
CC(C(=O)N1CCc2ccccc21)N1CCN(S(=O)(=O)c2cccs2)CC1 (stereo unspecified)	nt	-3	1	nt	-10	nt	11	nt
Cc1ccc(-n2nnc3c(SCC(=O)NCC4CCCO4)ncnc32)cc1 (stereo unspecified)	2	3	-1	4	nt	i	nt	15
CCCCc1ccc(NC(=S)N2CCC(O)CC2)cc1	0	1	4	-12	-2	i	6	0
c1ccc2c(-c3cc(NCc4ccncc4)n4nccc4n3)cccc2c1	nt	-1	1	nt	-30	nt	-12	nt
CCCCOc1ccc(C(=O)NNC(=O)c2cnccn2)cc1OC	nt	0	5	-3	-11	nt	0	nt
C=CC[C@@H](CC(=O)NCCO)C(=O)NCCOC(=O)[C@@H](CC=C)Cc1ccc(F)cc1	nt	0	2	6	-31	nt	-112	nt
CCOC(=O)C1CCCN(c2cc(C)nc3cc(-c4ccc(Cl)cc4)nn23)C1 (stereo unspecified)	-13	2	0	-1	-9	i	nt	-5

Next part.
SMILES	PABP polyA inh	MT1-MMP act inh	MT1-MMP act inh RFP	CSC inhib	Yeast UUG start	Rce1 inhib	HIV Env fusion	eIF4H FP inh	others
CCOC(=O)c1c(NC(=O)COC(=O)c2cnccn2)sc(C)c1C	nt	5	-1	-4	-12	nt	-2	nt
O=C(COc1ccccc1Cl)NC(=S)Nc1ccc(CN2CCOCC2)cc1	3	5	-3	nt	-8	i	7	-3
CC(=C/C(=O)O)/C(=C\c1ccc(Br)o1)C(=O)O	2	-1	0	-8	nt	i	0	12
CCCN1C=CC(=CC=C(C#N)C#N)C=C1	?	-113	6	-8	19	i	-19	?
Cc1c(CN2CCC(CO)(Cc3cccc(C(F)(F)F)c3)CC2)c2ccccc2n1C	-4	-4	-3	nt	nt	i	-4	12
CC1Sc2ccc(C(=O)Nc3ccccc3OC(F)F)cc2NC1=O (stereo unspecified)	nt	1	-2	1	nt	i	-21	nt
O=C(CN(Cc1ccccc1Cl)C(=O)CNS(=O)(=O)c1ccccc1)NCC1CCCO1 (stereo unspecified)	-6	-1	3	-3	-15	i	-5	-3
Cc1[nH]c2ccccc2c1/C=C/c1nc2ccccc2c(=O)n1-c1cccc([N+](=O)[O-])c1	-5	0	3	nt	nt	i	17	-2
CCOC(=O)CSc1nnc(Cc2cc(=O)[nH]c(=O)[nH]2)n1-c1ccc(Cl)cc1	54	-3	4	-12	-16	i	nt	46	eIF4H FP inh retest=9;PABP polyA inh retest=17
CCCCn1c(N)c(N(CCOC)C(=O)C2CCCN(C(=O)c3ccc(Cl)cc3)C2)c(=O)[nH]c1=O (stereo unspecified)	nt	0	1	-11	nt	i	-6	nt
Cc1ccc(NC(=O)Nc2ccc3oc(C)nc3c2)cc1	-2	1	-5	-6	-9	i	-130	-1
COC(=O)C1CCN(Cc2cc(=O)oc3cc(C)c(Cl)cc23)CC1	11	-1	3	-11	-1	i	-16	2
CCc1cccc(N(C(=O)c2csnn2)C(C(=O)NC(C)(C)C)c2ccccn2)c1 (stereo unspecified)	-7	3	8	-2	nt	i	6	5
CC(=O)N1CCN(C(=O)c2ccc3oc(CCCc4ccccc4)nc3c2)CC1	2	-1	-3	2	-8	i	10	3
Cc1ccc(C)c(OCc2cc(C(=O)N3CCOCC3)no2)c1	7	0	1	-14	-3	i	-31	-3
Cc1occc1C(=O)Nc1nccs1	4	-7	-5	5	12	i	nt	0
Cc1ccc(C(=O)N/C(=C\c2cn(S(=O)(=O)N(C)C)c3ccccc23)C(=O)NCCCn2ccnc2)cc1	-11	-2	-4	22	-17	i	0	-12

High-throughput results deposited in PubChem by several laboratories.
